Resorufin fluor – resorufin region autofluorescence | 0.04% of 59,000 active | max dye-equivalent concentration, M | Compound fluorescence, resorufin region 547/598 nm, buffer; stronger effect = higher value; active = above 10 nM dye equivalent; inconclusive = 1 to 10 nM; inactive = 1 nM or less; a few of its hits are not listed in these tables; further: highest value over a series up to 38 µM
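Compounds in 100 mM Tris buffer, pH 8.0, incubated 15 min at room temperature, then read with 547 nm excitation and 598 nm emission filters. Fluorescence was converted to dye-equivalent concentration using an on-plate six-point resorufin standard curve.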
A647 fluor – A647 region autofluorescence; AID 592; Compound fluorescence, A647 channel (570/671 nm), Tris buffer; 59,000 tested, under 10 active; max dye-equivalent concentration, M; active means above 1 µM dye equivalent; inconclusive means 0.1 to 1 µM; inactive means 0.1 µM or less;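 further: values scaled relative to a standard on each plate; highest value over a series up to 38 µM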
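Compound fluorescence was measured in 100 mM Tris buffer, pH 8.0, after 15 min at room temperature, using 570 nm excitation and 671 nm emission filters. Signal was normalized to a per-plate Alexa 647 standard curve and expressed as dye-equivalent concentration at each compound concentration.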
TSHR ag – TSH receptor (human) agonism; Potency, µM (titrated, usually from 57.1 µM), without a hit: at the highest dose activation, most hits filed as activators; 0.48% of 73,000 active; HEK293-CNG-TSHR cells (CNG channel as cAMP sensor), membrane potential dye, cAMP; active = well fitted activation curve of enough size with the parental cells flat; inconclusive = any curve in the parental cells; inactive = parental cells flat and receptor cells flat or falling; further: potency means the concentration at half of the fitted maximal effect; % of control where 0% means no effect; weak receptor curves with flat parental cells got no call and are not listed
Target sequence (P16473 whole entry, looked up): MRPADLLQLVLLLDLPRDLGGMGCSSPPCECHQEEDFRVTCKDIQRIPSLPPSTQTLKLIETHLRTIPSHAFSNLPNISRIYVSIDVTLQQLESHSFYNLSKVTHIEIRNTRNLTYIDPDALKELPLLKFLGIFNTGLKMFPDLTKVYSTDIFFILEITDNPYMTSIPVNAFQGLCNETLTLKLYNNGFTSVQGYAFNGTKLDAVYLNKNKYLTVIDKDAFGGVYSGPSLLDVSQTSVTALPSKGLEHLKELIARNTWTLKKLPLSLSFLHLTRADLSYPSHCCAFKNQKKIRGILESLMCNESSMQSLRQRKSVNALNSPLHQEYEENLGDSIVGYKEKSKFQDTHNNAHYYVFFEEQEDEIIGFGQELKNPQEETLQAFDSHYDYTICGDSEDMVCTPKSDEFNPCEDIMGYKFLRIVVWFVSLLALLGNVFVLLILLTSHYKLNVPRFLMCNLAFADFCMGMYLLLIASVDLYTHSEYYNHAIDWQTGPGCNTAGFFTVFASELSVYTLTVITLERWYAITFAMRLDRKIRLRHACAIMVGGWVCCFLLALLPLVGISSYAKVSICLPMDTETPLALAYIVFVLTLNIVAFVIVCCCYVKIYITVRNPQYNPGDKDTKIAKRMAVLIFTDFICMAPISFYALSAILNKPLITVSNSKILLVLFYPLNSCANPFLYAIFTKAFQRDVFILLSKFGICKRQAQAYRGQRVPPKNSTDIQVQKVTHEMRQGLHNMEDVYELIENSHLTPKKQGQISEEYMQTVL
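HEK 293 cells stably expressing TSHR and a cAMP-gated CNG channel; parental CNG-only cells as counterscreen. Cells preloaded 60 min with membrane potential dye plus 100 uM RO 20-1724, then compound 30 min; fluorescence read at 590 nm.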
A488 fluor – A488 region autofluorescence; max dye equivalency, M; compound autofluorescence, A488 spectral region, dye equivalency; stronger effect = higher value; 0.1% of 59,000 active; active = above 10 nM dye equivalent; inconclusive = 1 to 10 nM; inactive = 1 nM or less; about half of its hits are not listed in these tables;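 further: highest value over a series up to 38 µM; compound alone in buffer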
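Compound autofluorescence was read in 100 mM Tris pH 8.0 after 15 min at room temperature, ex 480 nm/em 540 nm. Intensities were converted to A488 dye-equivalent concentration using an on-plate six-point A488 standard curve.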
AID923 – qHTS Assay for Allosteric/Competitive Inhibitors of Caspase-1: Spectroscopic Profiling in AFC Spectral Region | 1.1% of 75,000 active | compound fluorescence, AFC spectral region (405/520 nm); almost no hit is shown here | Potency, µM (titrated, usually from 57.5 µM), for inactives: top-dose fluorescence increase, usual class: activators | AID 923, 2007; active means well fitted activation curve with a large enough effect; inconclusive means small, poorly fitted or top-dose-only effect;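 further: potency means the concentration at half of the fitted maximal effect; 0% is about no effect; scaled to a free AFC standard on each plate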
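Baseline compound fluorescence (AFC region, 405 nm ex/520 nm em) taken from the intercept of kinetic reads with 50 nM caspase-1 and 5 uM Ac-WEHD-AFC; normalized to an on-plate AFC standard curve; compounds titrated up to 57 uM.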
* marks the source's active call; other numbers are inactive results; i = inactive; ? = inconclusive; / = no result given; [ ] = another dose, or the depositor's remark.

SMILES	Resorufin fluor	A647 fluor	TSHR ag	A488 fluor	AID923
COc1cccc(C2C(C(=O)c3cc4ccccc4o3)=C(O)C(=O)N2CCN(C)C)c1OC (stereo not drawn)	i	2.9e-08	/	i	/
CC(=O)c1cccc(N2C(=NC(=O)C(C)C)SC3CS(=O)(=O)CC32)c1 (stereo not drawn)	i	2.6e-08	-1%	i	-1.3%
CCOC(=O)N1CCN(C(=O)c2cccc(OC)c2OC)CC1	i	5.1e-09	-2%	i	2.9%
CC1(C)Oc2ccc(C(=O)N3CCCCC3)cc2N(CC(=O)NCc2ccccc2)C1=O	i	4e-08	?	i	3.2%
COc1ccc(OC)c(C(=O)c2ccc(C(=O)O)cc2)c1	/	/	4%	/	4.7%
CCSc1nnc(NC(=O)CSc2nccn2-c2cccc(C)c2C)s1	i	1e-09	2%[11.4 µM]	i	3.1%
COC(=O)c1sc(NC(=O)C2CCCCC2C(=O)O)c(C(=O)OC)c1C (stereo not drawn)	/	/	1%	/	-0.2%
CCSc1nc2c(cnn2-c2ccc(C)cc2)c(=O)[nH]1	/	/	-10%[11.4 µM]	/	2.0%
O=C(CCNS(=O)(=O)c1ccc2c(c1)CCC(=O)N2)Nc1ccc2c(c1)OCCO2	i	1e-09	-4%	i	1.7%
O=C(O)C(F)(F)C(F)(F)C(F)(F)C(F)(F)C(=O)O	i	1e-09	6%[11.4 µM]	i	2.7%[11.5 µM]
COc1ccccc1CN1CCCC2(CCN(C(=O)c3ccco3)CC2)C1	i	1.6e-08	11%	i	0.2%
COCCCNC(=O)c1cc2c(s1)CS(=O)(=O)C2	i	1e-09	-4%[11.4 µM]	i	2.2%
COc1ccc(C)cc1NC(=O)c1cc2c(C)nc3ccccc3c2o1	i	2.5e-08	11%	i	1.7%
CC1(C)CC(=O)c2c(noc2-c2ccccc2)C1	i	7.1e-09	19%	i	-0.4%
COc1ccc(C2CC(c3ccco3)n3ncnc3N2)cc1 (stereo not drawn)	/	/	4%	/	-0.6%

An excerpt from above in order of length of the SMILES, largest number first.
SMILES	Resorufin fluor	A647 fluor	TSHR ag	A488 fluor	AID923
COc1cccc(C2C(C(=O)c3cc4ccccc4o3)=C(O)C(=O)N2CCN(C)C)c1OC (stereo not drawn)	i	2.9e-08	/	i	/
CCSc1nc2c(cnn2-c2ccc(C)cc2)c(=O)[nH]1	/	/	-10%[11.4 µM]	/	2.0%
CC1(C)CC(=O)c2c(noc2-c2ccccc2)C1	i	7.1e-09	19%	i	-0.4%

The results go on.
SMILES	Resorufin fluor	A647 fluor	TSHR ag	A488 fluor	AID923
Cc1cc(NC(=O)c2cnccn2)no1	/	/	-12%	/	2.8%
Cc1noc(C)c1C(=O)NC(C)C1CCCO1 (stereo not drawn)	i	6.4e-09	13%	i	-0.3%
CCOC(=O)C1=C(CSc2nc(-c3ccncc3)ccc2C#N)OC(N)=C(C#N)C1c1cccnc1 (stereo not drawn)	i	4.8e-09	/	i	/
O=C(CCCCn1c(=O)[nH]c2ccsc2c1=O)NCC1CCCO1 (stereo not drawn)	i	1e-09	-3%	i	-1.1%
CCN(C(=O)c1cn(C)c(=O)c2cc(OC)c(OC)cc12)c1ccccc1C	i	1e-09	17%[11.4 µM]	i	0.9%
O=C(CSCc1ccc(Cl)cc1)c1ccco1	i	3.4e-08	9%	i	0.1%
Cc1onc(-c2ccccc2Cl)c1C(=O)Nc1cc(=O)n(C)c(=O)n1C	i	1e-09	1%	i	-0.3%
CNC(=O)n1ccc(C(=O)N2CCCCC2)n1	i	1e-09	-3%	i	-0.6%
COc1ccc(Cn2nnnc2CN(Cc2cc3cccc(C)c3[nH]c2=O)C2CCCC2)cc1	i	1.9e-09	?	i	-0.8%
O=C(Cn1cnc2c(cnn2-c2ccccc2)c1=O)NC1CCCC1	/	/	6%	/	3.4%
CCOC(=O)c1[nH]c2ccc(OC)cc2c1NC(=O)CCN1CCN(Cc2ccccc2)CC1	i	8.8e-09	/	i	/
CCOc1ccc(NC(C)c2cc(Cl)ccc2O)cc1 (stereo not drawn)	i	2.7e-09	?	i	0.6%
O=C(c1ccc(=O)[nH]c1)N(Cc1ccco1)C1(C(=O)NC2CCCC2)CCCCC1	i	2.5e-09	?	i	0.8%
Nc1cc2c(nc3c4ccccc4c(N)cc3[n+]2-c2cccc3ccccc23)c2ccccc12 (tested in a mixture with another compound)	?	2.6e-08	-13%[11.4 µM]	i	-1.8%[11.5 µM]
COc1cccc(-c2cc(NCc3ccccc3OC)ncn2)c1	i	1.9e-09	?	i	-0.8%
CS(=O)(=O)Nc1cccc(-c2cncnc2Nc2ccc(F)cc2)c1	i	3.6e-09	?	i	0.3%
COc1ccc(-c2noc(CCC(=O)Nc3ccc(C)c(C)c3)n2)cc1	i	1.3e-08	20%	i	-0.8%
Cc1ccc2oc(=O)c3cnn(CC(=O)NCCCOC(C)C)c3c2c1	/	/	7%	/	0.5%
CO/N=C(\C(=O)N[C@@H]1C(=O)N2C(C(=O)O)=C(COC(N)=O)CS[C@H]12)c1ccco1	/	/	15%	/	0.4%
O=C1C=C(c2ccccc2)C(O)(c2ccccc2)C1 (stereo not drawn)	i	1.2e-08	2%	i	0.8%
O=C(NC1CCCCCC1)c1nnc(Cc2ccc(Cl)cc2)o1	/	/	11%	/	-0.4%
CCc1c(C)nc(SCCOc2ccc(OC(C)C)cc2)[nH]c1=O	i	7.2e-08	/	i	0.1%
COc1ccc(C(c2nnnn2C(C)(C)C)N2CCN(C)CC2)cc1OC (stereo not drawn)	i	1e-09	5%	i	-4.1%
CC1(C)Cc2c(C#N)c(N3CCN(C(=O)c4ccco4)CC3)nc(Cc3ccccc3)c2CO1	i	6.1e-08	/	i	/
CC1CCN(CC(=O)N2c3ccccc3CCc3ccccc32)CC1	/	/	19%	/	3.2%
Cn1c(=O)oc2cc(S(=O)(=O)NCc3ccccn3)ccc21	/	/	0%	/	0.3%
O=C(Oc1ccnc2cc(Cl)ccc12)N1CCCCCC1	/	/	?	/	-0.8%
O=c1cnc2cnc(OCc3ccccc3)nc2n1CCc1ccccc1	i	3.8e-09	?	i	3.2%
COCCCn1c(SCc2cc(=O)[nH]c3ccccc23)nnc1-c1ccco1	i	1e-09	3%[11.4 µM]	i	-2.0%
Cc1c(C(=O)O)[nH]c2c1C(=O)CC(c1ccccc1)C2 (stereo not drawn)	i	2.5e-08	?	i	0.7%

Pulled by compound from above, 2 records:
SMILES	Resorufin fluor	A647 fluor	TSHR ag	A488 fluor	AID923
COc1ccccc1CN1CCCC2(CCN(C(=O)c3ccco3)CC2)C1	i	1.6e-08	11%	i	0.2%
Cc1ccc2oc(=O)c3cnn(CC(=O)NCCCOC(C)C)c3c2c1	/	/	7%	/	0.5%

Later entries
SMILES	Resorufin fluor	A647 fluor	TSHR ag	A488 fluor	AID923
C=CCOn1c(=O)c(=O)n(OCc2ccccc2)c2ccccc21	i	1e-09	15%	i	1.3%
O=C(NCc1cccnc1)C1c2ccccc2C(=O)N1Cc1ccco1 (stereo not drawn)	i	7.6e-09	2%	i	4.6%
COc1ccc(C(=O)Nc2ccc(S(=O)(=O)Nc3nccnc3OC)cc2)cc1OC	/	/	3%	/	0.5%
Cc1ccc(-n2ncc(C(=O)NCc3ccc4c(c3)OCO4)c2NC(=O)c2ccco2)cc1C	i	1.2e-08	19%	i	0.1%
CCn1c(N2CCN(CC(=O)Nc3cccc(C)c3C)CC2)nc2ccccc21	i	1e-09	18%	i	-1.5%
O=c1c(/C=N/O)coc2ccc3ccccc3c12	i	6.5e-09	6%[11.4 µM]	i	0.1%
O=C(C1CCN(S(=O)(=O)c2cnc[nH]2)CC1)N1CCN(c2ncccn2)CC1	i	1.5e-08	?	i	-1.3%
CN(C)C(=O)CSc1nnc(C23CC4CC(CC(C4)C2)C3)o1	i	2.7e-08	0%	i	-1.9%
COC(=O)CCCCCN1C(=O)NC(CC2CC2)C(C(=O)OCc2ccccc2)=C1C (stereo not drawn)	/	/	?	/	0.9%
CC(C)(C)CC(C)(C)c1ccc(OCCOCC[N+](C)(C)Cc2ccccc2)cc1	i	3.2e-08	?	i	-2.7%
COc1ccc(NC(=O)CN2CCN(C3c4ccccc4-c4ccccc43)CC2)c(OC)c1	i	2.3e-08	?	i	-0.1%
Cc1cccc(C)c1OCC(=O)Nc1cccc(NC(=O)c2ccco2)c1	i	1e-09	25%	i	4.8%
Cc1ccc(S(=O)(=O)Cn2nnnc2CN(Cc2ccco2)Cc2cccs2)cc1	i	1e-09	?	i	1.9%
O=C(O)C1C2C=CC(C2)C1C(=O)OCc1ccccc1 (stereo not drawn)	i	9e-09	0%	i	2.0%
CCCN(CCC)c1nc2ccccc2nc1C(C#N)C(=O)OC(C)COC (stereo not drawn)	i	1.6e-09	/	i	/
COc1ccc2c(c1)C(=O)N(c1ccccc1OC)C(=O)C2(C)C	i	1e-09	0%	i	0.4%
CC1(C)CC(=O)c2sc(NC(=O)CN3C(=O)CCC3=O)nc2C1	/	/	-8%	/	-5.0%
CC(OC(=O)c1cc2sccc2n1C)C(=O)NCc1ccc2c(c1)OCO2 (stereo not drawn)	i	6.8e-09	?	i	1.2%
O=C(Nc1cccnc1)c1cccs1	i	1e-09	-3%	i	-1.2%
COc1cccc(-c2nccc(NCc3cccnc3)n2)c1	i	1.5e-08	/	i	1.2%
COC(=O)c1c(NC(=O)CN2CCN(c3ccccc3)CC2)c2c(C)cccc2n1C	i	7.2e-09	22%	i	0.7%
N#C/C(=C1\CCCN1)c1ccc2ccccc2n1	i	3.3e-08	10%	i	13%
COc1cc(/C=N/n2cnnc2)ccc1OC(=O)c1ccncc1	/	/	-3%	/	1.8%
CCOc1ccc(S(=O)(=O)n2nnc3ccccc32)cc1C(C)C	i	4.9e-09	17%	i	-1.3%
CC(C)c1ccc(-c2nc(N3CCCCC3)[nH]c(=O)c2C#N)cc1	i	1e-09	-2%	i	-0.9%
Cc1cnc(NC(=O)c2ccco2)s1	i	6.2e-08	-6%	i	-2.5%
Cc1ccc(OCC(=O)N2CCC(N3CCCCCC3)CC2)cc1	i	1e-09	/	i	/
Cc1nc(C)n(CC(O)COc2ccc3ccccc3c2)n1 (stereo not drawn)	i	1.5e-08	-2%	i	-1.3%
CCOc1ccc(-c2nnn(CC(=O)Nc3cccc(OC)c3)n2)cc1OCC	i	7.7e-09	-1%	i	1.4%
Cc1noc(C)c1-c1nc(N(C)C)c2ccccc2n1	i	1e-09	16%	i	0.7%
O=C(Nc1cc(C(F)(F)F)ccc1N1CCCC1)c1cccnc1	i	1.5e-08	10%	i	0.5%
CC(C)CCNC(=O)C(c1ccco1)N(C(=O)Cn1nnc2ccccc21)c1ccc2c(c1)OCO2 (stereo not drawn)	i	2.6e-09	22%	i	-3.0%
CCC(=O)N1CCc2cc(S(=O)(=O)N3CCN(C(=O)c4ccco4)CC3)ccc21	i	1e-09	1%	i	0.5%
CC(Oc1ccc(Cl)cc1Cl)C(=O)NCCCN1CCOCC1 (stereo not drawn)	/	/	0%	/	-2.4%
O=C(COC(=O)C1(c2ccccc2F)CCCC1)NC1CCS(=O)(=O)C1 (stereo not drawn)	i	6.6e-08	-4%	i	2.1%

A few values from the list:
AID923 with CCSc1nc2c(cnn2-c2ccc(C)cc2)c(=O)[nH]1 is entered as 2.0%
A647 fluor with CCCN(CCC)c1nc2ccccc2nc1C(C#N)C(=O)OC(C)COC (stereo not drawn) is entered as 1.6e-09
AID923 with COC(=O)c1sc(NC(=O)C2CCCCC2C(=O)O)c(C(=O)OC)c1C (stereo not drawn) is entered as -0.2%
AID923 with COc1cccc(-c2nccc(NCc3cccnc3)n2)c1 is entered as 1.2%
TSHR ag with CC1(C)CC(=O)c2sc(NC(=O)CN3C(=O)CCC3=O)nc2C1 is entered as -8%
TSHR ag with CC1CCN(CC(=O)N2c3ccccc3CCc3ccccc32)CC1 is entered as 19%

Some of the compounds tested, so the mix of outcomes need not match the whole.
